# D2 PAM – potentiates the human D2 dopamine receptor allosterically | DiscoveRx D2 beta-arrestin cells, luminescence, 90 min; 100% = 57 uM dopamine signal | potentiation, % (test concentration not listed) | actives 0.23% (n = 360,000) | AID 624464; active = potentiation of 50% or more; inconclusive = 30% to 50%; inactive = 30% or less;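 further: compound concentration not given in the record; tested on top of an EC20 dose of dopamine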
#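 D2 cells co-treated with compound plus 50 nM dopamine (EC20) for 90 min at 37 deg C to detect potentiation. Beta-arrestin recruitment was read as enzyme-fragment luminescence after 1 h at ambient temperature. Full response was set by 57 uM dopamine.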
# Sfp PPTase inh – inhibitors of Bacillus subtilis Sfp phosphopantetheinyl transferase; AID 1490; Potency, µM, inactives show max response, negative = inhibition, most hits filed as inhibitors; Q9F4F7; actives 3.5% (n = 310,000); Biochemical Sfp PPTase activity, qHTS; active means well fitted inhibition curve with a large enough effect; inconclusive means small, poorly fitted or top-dose-only effect, or another doubt; inactive means no such curve, though single readings can be large or run the other way;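 further: the enzyme is Sfp with the accession as filed and its product quenches rhodamine fluorescence; potency means the concentration at half of the fitted maximal effect; 0% = enzyme reaction without inhibitor and -100% = no enzyme wells; top concentration of the series not given in the record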
#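 Buffer: 50 mM Hepes-Na pH 7.6, 10 mM MgCl2, 0.01% Nonidet P-40, 0.01% BSA. Enzyme 15 nM, pre-exposed to compound 15 min; substrates then added and fluorescence change tracked over 30 min.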
# D2 agonist – human D2 receptor agonism in beta-arrestin assay | P14416 | DiscoveRx PathHunter D2 beta-arrestin, luminescence, 90 min; 100% = 57 uM dopamine signal | activation, % (concentration not given with the values) | actives 0.084% (n = 360,000) | AID 624465; in the data active = activation above about 40%; inconclusive = about 15% to 40%; inactive = below about 15%; further: compound concentration not given in the record; the text of the record calls up to 30% inactive
#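 DiscoveRx PathHunter D2 beta-arrestin cells (2,100/well) attached overnight, then compound-stimulated 90 min at 37 C in HBSS/10 mM HEPES/0.1% Tween-20 buffer; beta-galactosidase complementation read by luminescence after 1 h at ambient temperature. Dopamine 57 uM final (EC100) as control.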
# PINK1 modulator – modulators of PINK1 expression | PINK1 immunofluorescence, high-content cytometry, 24 h | Potency, µM (top dose mostly 76.6 µM), without a hit: at the top dose activation (PINK1 increase), actives largely listed as activators | actives 0.2% (n = 410,000) | AID 624263; active = well fitted activation curve with a large enough effect; inconclusive = small, poorly fitted or top-dose-only effect; inactive = flat fitted curve, though single readings scatter; cell line not stated here;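 further: potency means the concentration at half of the fitted maximal effect; % of control where 0% means no effect; nearly all actives have a fitted effect of over 65% in size; a mitochondrial uncoupler was the plate control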
#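 Fluorescence from anti-PINK1 antibody, together with nuclear and cell stains, was scanned on a laser-scanning cytometer. Before staining, stable-line cells were incubated 24 hours with compounds at 5 concentrations; primary antibody 12 h at 10 degrees C.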
# Six1-Eya2 inh – inhibitors of human Six1/Eya2 interaction; AlphaScreen GST-Six1/His-Eya2 binding, biochemical; hits give low values; control for the full effect not named in the record; activity change, % (test concentration not listed); actives 0.56% (n = 360,000); Q15475+O00167; in the data active = activity change below about -65%; inconclusive = about -30% to -65%; inactive = above about -30%; further: on the % scale 0 is the no-effect control and ±100 the full control effect; compound concentration not given in the record
#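 AlphaScreen luminescence read after one hour at 37 °C in darkness. Pin-transferred compounds met GST-Six1 and His-Eya2 protein (5X stock 250 nM/500 nM) plus glutathione donor and Ni-chelate acceptor beads (5X, 50 ug/mL).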
# TRPV1 potentiator – human TRPV1 potentiation; Q8NER1; actives 0.02% (n = 320,000); potentiation, % at 8.33 µM; TRPV1-expressing cells, Fluo-8 calcium influx, capsaicin EC20 potentiation; host cell line not named in the record; control for the full effect not named in the record; active means potentiation above 80%; inconclusive means 30% to 80%; inactive means below 30%; further: 0% is about no effect
# Target sequence (Q8NER1 whole entry, looked up): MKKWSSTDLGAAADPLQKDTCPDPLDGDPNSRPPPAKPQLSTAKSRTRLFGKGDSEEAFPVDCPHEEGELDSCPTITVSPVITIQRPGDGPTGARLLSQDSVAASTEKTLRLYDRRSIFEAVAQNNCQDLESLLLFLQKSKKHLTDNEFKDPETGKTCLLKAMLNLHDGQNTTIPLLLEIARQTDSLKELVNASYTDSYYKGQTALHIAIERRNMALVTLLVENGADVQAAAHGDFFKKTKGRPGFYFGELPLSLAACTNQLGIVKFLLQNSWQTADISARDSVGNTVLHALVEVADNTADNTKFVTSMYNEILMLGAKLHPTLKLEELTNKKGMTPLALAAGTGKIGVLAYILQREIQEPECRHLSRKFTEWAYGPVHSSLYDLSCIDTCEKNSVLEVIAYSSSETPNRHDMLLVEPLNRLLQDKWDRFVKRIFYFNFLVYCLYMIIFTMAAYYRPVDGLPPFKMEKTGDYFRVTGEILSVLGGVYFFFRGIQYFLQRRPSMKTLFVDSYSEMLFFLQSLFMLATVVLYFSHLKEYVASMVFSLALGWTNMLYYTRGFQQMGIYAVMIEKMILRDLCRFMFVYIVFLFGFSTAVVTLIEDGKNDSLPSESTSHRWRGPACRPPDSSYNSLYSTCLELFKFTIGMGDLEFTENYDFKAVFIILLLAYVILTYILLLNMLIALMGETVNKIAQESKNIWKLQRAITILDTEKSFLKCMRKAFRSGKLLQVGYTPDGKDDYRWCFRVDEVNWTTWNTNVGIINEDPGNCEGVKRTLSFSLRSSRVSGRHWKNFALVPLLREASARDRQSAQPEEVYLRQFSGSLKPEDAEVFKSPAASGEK
#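 Cells expressing TRPV1 were dye-loaded with Fluo-8 and read kinetically: 10 s baseline, 3 min after compound (agonist portion), then 2 min after EC20 capsaicin (allosteric enhancer portion). Calcium-bound dye fluorescence at 480/520 nm.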
# CtBP-E1A blk – CtBP/E1A binding inhibition; AID 651724; actives 0.49% (n = 340,000); activity change, % (concentration not given with the values); AlphaScreen GST-E1A/His-CtBP binding, 1536-well; hits give low values; control for the full effect not named in the record; in the data active means activity change below about -65%; inconclusive means about -30% to -65%; inactive means above about -30%; further: on the % scale 0 is the no-effect control and ±100 the full control effect
#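 Protein mix (5X: 125 nM each GST-E1A, His-CtBP) was incubated with pinned compound 2 h at 37 deg C in dark, in 50 mM Tris pH 8.0 buffer with 300 mM NaCl. Glutathione donor and nickel acceptor beads followed; AlphaScreen signal read after 1 h.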
# Starred values were filed as active, the others as inactive; u = inconclusive; x = no result given; & = joins results of further samples; [ ] = another dose, or the depositor's remark.
item	Structure	Six1-Eya2 inh	D2 PAM	CtBP-E1A blk	TRPV1 potentiator	Sfp PPTase inh	D2 agonist	PINK1 modulator
1	Cc1ccc(OCC(=O)NC2CCCC(C)C2C)c([N+](=O)[O-])n1 (centres undefined)	0	0	4	-15	x	-0.5	5.1%
2	Cc1ccnc(NS(=O)(=O)c2cnc(Cl)c(Br)c2)c1	5	-9	10	-7	-8%	0.3	-1.1%
3	COc1cc(S(=O)(=O)N2CCN(C)CC2)c(OC)cc1Cl	-2	-13	-9	3	9%	-1.1	-1.9%
4	Cc1ccc(C)c(CC(=O)N2CCCC(c3cc(C(=O)Nc4ccc5c(c4)OCO5)no3)C2)c1 (centres undefined)	-14	-9	3	x	x	2.5	0.4%
5	O=C(COC(=O)c1ccc(Cl)nc1)Nc1ccc2c(c1)OCCO2	-4	3	x	7	x	2.1	1.2%
6	CC(Oc1ccc(Cl)cc1Cl)C(=O)NCc1ccncc1 (centres undefined)	1	-3	-2	-3	6%	0.4	-1.3%
7	Cc1ccc(-c2nnnn2-c2ccccc2C(=O)O)cc1	2	-3	x	x	x	-6.0	-0.4%
8	C(#Cc1ccccc1)CN1CCCCC1	1	-21	4	2	5%	-3.3	-0.1%
9	C=CCSc1nc2c(N)ncnc2n1C1OC(CO)C(O)C1O (centres undefined)	1	-4	1	x	x	-4.9	0.1%
10	O=C(O)CC/C(=N/NC(=O)c1ccc(-c2ccccc2)cc1)c1ccccc1	-13	-8	3	-17	22%	-1.9	-0.8%
11	Cc1cc(=O)[nH]c2nnc(-c3ccc(Br)cc3)n12	6	-7	2	-13	-12%	-2.7	-1.1%
12	Cn1nc(-c2ccc3c(c2)OCCO3)c2ccccc2c1=O	-1	-3	2	-1	19%	2.8	6.3%
13	O=C(c1ccc(F)cc1)N1CCN(C(=O)c2cccnc2)CC1	4	7	2	-2	8%	-0.2	-0.4%
14	COc1ccc(C(=O)C(C)OC(=O)c2nc3nccc(C)n3n2)cc1 (centres undefined)	2	-3	-3	15	x	6.2	0.0%
15	O=C(Cn1cc(C(F)(F)F)ccc1=O)Nc1ccc2c(c1)OCO2	-1	-7	2	x	x	-2.2	-1.2%
16	CCCS(=O)(=O)N1CCC(C(=O)NCCCN2CCCC2=O)CC1	2	0	13	12	5%	-1.0	-2.1%
17	CC(=O)OCc1cc(-c2nc3ccccc3[nH]c2=O)nn1-c1ccc(Cl)cc1	6	-19	x	-5	-9%	-5.9	0.6%
18	C[C@H](CO)N1C[C@H](C)[C@@H](CN(C)C(=O)Nc2cc(F)ccc2F)Oc2ncc(-c3cccc(F)c3)cc2C1=O	-8	-3	-18	x	x	-7.3	2.4%
19	CC(C)CC1COC(=O)N1 (centres undefined)	-8	-2	1	6	6%	-4.5	-0.6%
20	CCOc1ccc(NC(=O)CS(=O)CC(=O)Nc2cccnc2)cc1 (centres undefined)	-1	-2	4	3	-1%	0.2	2.0%
21	Cc1nc(-c2nc(C(=O)NNS(C)(=O)=O)cs2)cs1	-16	-3	2	15	4%	0.0	0.5%
22	CCOC(=O)c1c(C)n(C)c2cc(-c3ccc(C)cc3)c(O)cc12	2	-2	2	-14	-11%	-1.5	-0.9%
23	CC(C)=CC1C(C(=O)NCCc2ccccc2)C1(C)C (centres undefined)	6	-4	11	x	x	5.2	1.5%
24	COc1ccccc1CNC(=O)C(NS(=O)(=O)c1ccc2c(c1)oc(=O)n2C)C(C)C (centres undefined)	0	-5	0	-6	12%	-2.6	0.8%
25	COc1ccc(-c2ccc3c(c2)c(Sc2ccccc2)c(-c2ccccc2)n3C)cn1	-8	x	-5	x	x	x	1.4%
26	NC(=O)CCC(NC(=O)OCc1ccccc1)C(=O)OCC(=O)c1ccccc1 (centres undefined)	7	-19	2	x	x	-2.7	-0.3%
27	C=CCNC(=S)NCC=C	1	-3	1	1	u	-2.6	1.7%
28	C[C@H](NC(=O)[C@@H]1CCCN1C(=O)[C@@H]1CCCN1C(=O)c1ccc(Cl)cc1)c1ccccc1	5	x	1	x	x	x	1.0%
29	Cc1cc2nc(-c3ccccc3O)[nH]c2cc1C	-1	-1	2	x	x	6.6	-1.8%
30	CC(C)Cn1c(-c2cccc(S(=O)(=O)N3CCOCC3)c2)n[nH]c1=S	-3	-14	x	x	x	-5.1	-0.4%

# Continuation:
item	Structure	Six1-Eya2 inh	D2 PAM	CtBP-E1A blk	TRPV1 potentiator	Sfp PPTase inh	D2 agonist	PINK1 modulator
31	Cc1ccc(S(=O)(=O)N2C[C@H]3C(=O)C[C@@H](c4cccc(Cl)c4)N(S(=O)(=O)c4ccc(C)cc4)[C@H]3C[C@H]2c2ccc(Cl)cc2)cc1	-1	2	-5	x	x	-6.9	1.9%
32	CCOC(=O)c1sc(CS(=O)(=O)c2ccc(Cl)cc2)nc1C	-2	-2	5	2	17%	-3.1	-1.2%
33	COc1ccc(C(=O)NCC(=O)NCC(=O)OCC(=O)C(C)(C)C)cc1	5	-1	9	12	3%	-0.4	0.6%
34	CCOC(=O)c1nnn(CC(=O)N2N=C(c3cccc4ccccc34)CC2c2ccccc2)c1C(=O)OCC (centres undefined)	-6	-2	-1	-1	10%	-1.5	2.4%
35	CSc1nc2cc3c(cc2n1C(=O)c1ccc(C)cc1)OCCO3	4	-15	7	-6	4%	-0.8	1.8%[38.3 µM]
36	CC1CCN(C(=O)c2ncn3c2c(=O)[nH]c2ccccc23)CC1	2	1	-9	x	x	-3.6	0.1%
37	C[C@H]1CN([C@@H](C)CO)C(=O)c2cc(NC(=O)Cc3ccccc3)ccc2O[C@H]1CN(C)Cc1ccccc1	-2	-6	2	x	x	-0.5	1.3%
38	CCN(CCn1cccn1)C(=O)C1CCC(=O)N(CCc2cccc(F)c2)C1 (centres undefined)	1	-12	5	1	17%	-2.5	2.5%
39	CN(C(=O)c1ccccc1C(=O)OCC(=O)c1ccc(Br)cc1)c1ccccc1	-1	10	-15	1	x	-1.8	-1.5%
40	COc1ccccc1CNc1nc(-c2cc(C)n(C)c2C)cs1	-2	-10	-4	-4	-59%	-4.4	2.6%
41	CCCCNC(=NCc1cccc(C(F)(F)F)c1)Nc1ccccc1	5	-15	5	-15	6%	-0.7	1.4%
42	CCOC(=O)C1=CCN(S(=O)(=O)c2cccc(Cl)c2)C1c1cccc(F)c1 (centres undefined)	13	1	-4	x	x	0.6	4.3%
43	COc1ccccc1OCC(=O)NCC(c1cccs1)N1CCOCC1 (centres undefined)	1	-16	11	6	14%	-1.9	2.8%
44	Cc1ccc(S(=O)(=O)/N=C(/Sc2ccccc2C(=O)O)c2ccccc2)cc1	-14	-7	-15	8	79µM*	-0.8	2.6%&5.4%
45	Cc1occc1C(=O)Nc1sc2c(c1C(N)=O)CCCCC2	-7	8	-14	-12	25µM*	5.8	-2.3%
46	Cc1ccc(N2C(=NC(=O)c3ccccc3)SC3CS(=O)(=O)CC32)cc1 (centres undefined)	-10	-2	-27	-1	-4%	8.4	-0.7%
47	C[C@]12c3[nH]c4cc(-c5ccco5)ccc4c3CCN1C(=O)[C@@H](CC(=O)NCc1cccc(C(F)(F)F)c1)C[C@@H]2C(=O)N1CCOCC1	-9	0	-5	x	x	-1.1	12%
48	Nc1c(C(=O)Nc2cccc(F)c2)nnn1-c1cccc(C(F)(F)F)c1	4	-4	-14	5	2%	0.8	2.8%&1.1%
49	COc1cc(C(=O)O)c2ccccc2n1	2	-6	9	5	14%	3.0	-1.5%
50	O=C(Nc1ccc(Cl)cc1Cl)c1ccc2c(c1)OCCO2	3	0	4	-11	x	6.3	-0.7%
51	COc1ccc2nc(N3C(=O)CC(Cc4ccc(Cl)cc4)C3=O)sc2c1 (centres undefined)	0	-5	-6	13	8%	-2.5	0.6%[38.3 µM]
52	COc1ccc(C2CC(=O)c3cnc(NC(=O)c4ccccc4)nc3C2)c(OC)c1 (centres undefined)	7	-3	0	-13	7%	-0.1	5.1%
53	CN(C)C(=O)c1sccc1Oc1ccc(F)cc1[N+](=O)[O-]	-2	-2	3	3	18%	0.3	2.1%
54	Clc1cccc(-c2cc3nc(NCCOc4ccccc4)ccn3n2)c1	12	-4	-18	x	x	4.1	11%
55	Cc1cc2c(NC(=O)Nc3ccc(F)cc3)cccc2nn1	u	-6	u	2	35µM*	1.3	2.3%
56	Cc1cccc(C(=O)/C=C2/c3ccccc3CC(C)(C)N2C)c1	-10	-6	-10	6	1%	-2.5	-4.5%[38.3 µM]
57	CC1(C(=O)NCc2ccco2)Cc2c(-c3cccc(C(N)=O)c3)ccnc2O1 (centres undefined)	-6	7	1	x	x	-3.5	10%
58	O=c1c2ccccc2cnn1-c1ccc(Cl)cc1	0	-13	3	1	12%	-0.5	1.8%
59	COc1ccccc1CNC(=O)CCCC(=O)n1ncc2cc(C)ccc21	-12	-1	-4	10	4%	-1.7	-1.1%
60	CCn1c(=O)n(CC(=O)NCc2ccco2)c(=O)c2ccccc21	4	0	-5	-10	10%	-3.5	2.0%

# Further structures follow.
item	Structure	Six1-Eya2 inh	D2 PAM	CtBP-E1A blk	TRPV1 potentiator	Sfp PPTase inh	D2 agonist	PINK1 modulator
61	Cc1ccc(NC(=O)NNC(=O)c2ccccc2)cc1	2	-7	x	-16	21%	-4.5	1.3%
62	Cc1ccc(N2CCN(S(=O)(=O)N3CCCCCC3)CC2)cc1Cl	6	-7	2	-7	17%	-1.5	16%[38.3 µM]
63	CC(=O)c1ccccc1OC(=O)CCN1C(=O)c2ccccc2C1=O	-1	4	0	-2	-1%	3.7	1.3%
64	Cc1ccccc1OCC(=O)Nc1ccccc1N1CCC(C)CC1	16	3	8	-3	2%	1.3	30%
65	COc1ccc(CNC(=O)CN(C(=O)c2snc(C(N)=O)c2N)c2ccc(F)cc2)cc1	-1	-5	-7	0	20%	-1.7	2.8%
66	CC(=O)Nc1ccc(NC(=O)CSc2nc(C)nc3sc(C)c(C)c23)cc1	0	-1	x	-10	-28%	0.2	9.9%
67	CCOC(=O)c1c(NC(=O)CSc2nc3ccccc3c(=O)n2-c2ccc(F)cc2)sc(C(C)=O)c1C	-1	-6	0	-11	-6%	-1.5	1.1%
68	CO/N=C/NC(=O)NOCc1ccc(Cl)cc1Cl	0	12	-2	6	-7%	1.6	0.6%
69	CC(C)c1ccc(C(C)NC(=O)C2CCCC2)cc1 (centres undefined)	1	-56	x	18	33%[activator]	8.7	7.1%

# Compound activity deposited in PubChem by National Center for Advancing Translational Sciences (NCATS).
